# NS1 function inh: influenza NS1 inhibition | S. cerevisiae slowed by influenza A NS1, growth recovery by OD600 | Potency, µM (highest dose often 46.1 µM), without a hit: at the top dose activity, positive = more growth | hit rate 0.4% among 270,000; active means well fitted rising curve with a large enough effect; inconclusive means small, poorly fitted or top-dose-only effect; inactive means no such curve, though single readings can be large or run the other way; further: nearly all actives have a fitted effect of over 50% in size
#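 S. cerevisiae expressing influenza A NS1, grown in glucose, washed, then diluted 1:100 into pH 6.0 -URA galactose medium with 23 nl compound. Growth recovery read as OD600; NS1-free strain serves as control.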
# 2A StopGo: FMDV 2A StopGo reporter, luciferase signal; hit rate 1.2% among 410,000; Potency, µM (series often up to 57.9 µM), inactives show at the top dose signal change, negative = less light; AID 1159524; human cells with a luciferase reporter of 2A StopGo recoding; control for the full effect not named in the record; active = well fitted falling curve with a large enough effect; inconclusive = small, poorly fitted or top-dose-only effect; inactive = no such curve, though single readings can be large or run the other way; tested in HEK293T cells; further: on the % scale 0 is the no-effect control and ±100 the full control effect; nearly all actives have a fitted effect of over 45% in size; luciferase light after 4 h
# LASV entry inh: Lassa virus entry inhibition; Lassa virus pseudotype entry inhibition, cell reporter; control for the full effect not named in the record; Potency, µM (series often up to 37.9 µM), inactives show at the top dose activity change, negative = inhibition, most hits filed as inhibitors; hit rate 1.2% among 300,000; active means well fitted inhibition curve with a large enough effect; inconclusive means small, poorly fitted or top-dose-only effect, or effect the other way; inactive means flat fitted curve, though single readings scatter; tested in HEK293 cells; further: on the % scale 0 is the no-effect control and ±100 the full control effect; nearly all actives have a fitted effect of over 50% in size; luciferase read-out
# Cruzain Triton: inhibitors of Trypanosoma cruzi cruzain with detergent. P25779. purified cruzain, Z-FR-AMC fluorescence, 0.01% Triton. Potency, µM, without a hit: max response, negative = inhibition, most hits filed as inhibitors. hit rate 0.43% among 200,000;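 further: plate controls were neutral wells for no effect and buffer without enzyme for full effect; nearly all actives have a fitted effect of over 40% in size; top concentration of the series not given in the record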
# Target sequence (P25779 123-467 limits assumed): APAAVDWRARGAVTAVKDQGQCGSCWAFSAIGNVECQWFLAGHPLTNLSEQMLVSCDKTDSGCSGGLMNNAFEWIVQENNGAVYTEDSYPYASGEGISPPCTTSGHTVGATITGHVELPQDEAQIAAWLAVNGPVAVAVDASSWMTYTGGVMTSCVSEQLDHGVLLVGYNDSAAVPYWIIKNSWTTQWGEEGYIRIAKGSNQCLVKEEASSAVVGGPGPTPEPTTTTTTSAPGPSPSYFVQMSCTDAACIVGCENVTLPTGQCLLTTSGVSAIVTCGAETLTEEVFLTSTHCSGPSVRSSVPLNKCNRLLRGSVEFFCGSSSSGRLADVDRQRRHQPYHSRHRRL
#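 Cruzain (1.5 nM) preincubated 15 min at RT with compound in 100 mM sodium acetate pH 5.5, 5 mM DTT, 0.01% Triton X-100. Reaction started with 2 uM Z-FR-AMC; AMC fluorescence (ex 360/em 450 nm) change over 60 s gave rate.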
# Marburg entry inh: Marburg virus entry inhibition | Marburg virus pseudotyped entry inhibition, cell reporter; control for the full effect not named in the record; about a third of the inactives were read at about 46 µM | hit rate 1.8% among 300,000 | Potency, µM (doses to about 37.8 µM), without a hit: top-dose activity change, negative = inhibition, usual class: inhibitors; active = well fitted inhibition curve with a large enough effect; inconclusive = small, poorly fitted or top-dose-only effect, or effect the other way; inactive = flat fitted curve, though single readings scatter; tested in HEK293 cells; about a fifth of its hits are not listed in these tables; further: on the % scale 0 is the no-effect control and ±100 the full control effect; luciferase read-out
# RE007 growth inh: less growth of the S. pombe RE007 Vpr strain. hit rate 0.21% among 360,000. S. pombe RE007 Vpr strain, BacTiter-Glo ATP luminescence, 24 h; control for the full effect not named in the record. Potency, µM (titrated, usually from 92.2 µM), for inactives: at the top dose activity change, negative = less growth; active = well fitted falling curve with a large enough effect; inconclusive = small, poorly fitted or top-dose-only effect; inactive = no such curve, though single readings can be large or run the other way;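 further: on the % scale 0 is the no-effect control and ±100 the full control effect; nearly all actives have a fitted effect of over 50% in size; the assay follows cell death caused by Vpr and the record does not say whether a fall means rescue or toxicity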
#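 Fission yeast strain RE007, carrying one chromosomally integrated HIV-1 vpr copy, was seeded at OD 0.01 in PMG+AL medium with 23 nL pinned compound. After 24 h at 30 °C and 99% humidity, viability was read by BacTiter-Glo luminescence.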
# SARS PLP yeast: SARS-CoV PLP inhibition in yeast | Potency, µM (top dose mostly 32.9 µM), for inactives: at the top dose activity, positive = growth rescue | AID 485353 | hit rate 0.19% among 330,000 | S. cerevisiae expressing SARS-CoV PLpro, growth rescue; control for the full effect not named in the record; active means well fitted rising curve with a large enough effect; inconclusive means small, poorly fitted or top-dose-only effect; inactive means no such curve, though single readings can be large or run the other way; further: 0% is about no effect; nearly all actives have a fitted effect of over 55% in size; growth read by luminescence after 48 h
# Cruzain inh noDet: inhibitors of Trypanosoma cruzi cruzain without detergent; P25779; purified cruzain, Z-FR-AMC fluorescence, no detergent; Potency, µM, without a hit: max response, negative = inhibition, usual class: inhibitors; hit rate 2.3% among 200,000;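 further: plate controls were enzyme without inhibitor for no effect and buffer without enzyme for full effect; nearly all actives have a fitted effect of over 40% in size; top concentration of the series not given in the record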
#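 Detergent-free condition (0.00005% Triton X-100) in acetate buffer pH 5.5 with DTT. 1.5 nM enzyme and compound were pre-mixed 15 min, then 2 uM Z-FR-AMC substrate added; reaction progress from fluorescence change between first and third reads (60 s).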
# The depositor's hits bear a star; ? = inconclusive; · = not tested or not shown; & = joins results of further samples; [ ] = remark or other dose. Unless noted, the call rests on the fitted dose curve; in most records, active means well fitted curve in the direction sought with a large enough effect; inconclusive means small, poorly fitted or top-dose-only effect, or another doubt; inactive means no such curve, though single readings can be large; an effect the other way counts as inactive or inconclusive. Potency means the concentration at half of the fitted maximal effect.
SMILES,NS1 function inh,2A StopGo,LASV entry inh,Cruzain Triton,Marburg entry inh,RE007 growth inh,SARS PLP yeast,Cruzain inh noDet
COc1ccccc1N1CCN(C(=O)c2cc3c(=O)n(Cc4cccnc4)ccc3nc2C)CC1,·,-16.9%,-1.7%[46.1 µM],-6.4%,·,·,·,9.1%
O=C(C1CCN(S(=O)(=O)c2ccccc2F)CC1)N1CCCC1,·,-0.3%,?,·,12.5%,2.5%,2.8%,·
Cc1ccc(Cc2cnc(N3C(=N)SC(C)C3=O)s2)cc1 (stereo unspecified),·,-19.7%,-6.8%,·,3.3%,-15.2%,-3.8%,·
COc1ccccc1-c1nnc(SCC(N)=O)o1,·,32.6%[activator],?,-1.0%,?,·,·,-5.6%
NC(=O)c1cccnc1Oc1ccc(Cl)cc1,1.4%,-1.3%,11.1%,·,-1.3%[46.1 µM],-1.9%,-0.1%,·
CCOC(=O)C(=O)Nc1ccc([N+](=O)[O-])cc1OC,-2.5%,-6.8%,2.7%,-4.8%,0.7%,-28.0%,21.9%,0.9%
COc1ccccc1CNC(=O)c1cn(C)c2ccc(S(=O)(=O)N(C)C3CCCCC3)cc2c1=O,·,1.9%,-6.4%[46.1 µM],-3.2%,15.6%[46.1 µM],·,·,?
O=C(NCCc1csc2nc(-c3ccc(F)cc3)nn12)c1ccco1,·,-20.5%,5.5%[46.1 µM],3.5%,·,·,·,8.3%
O=C(CSc1nnc(Cc2ccccc2)c(=O)[nH]1)Nc1ccccc1,·,-0.8%,-5.2%,·,23.7%,-15.0%,-2.2%,·
Cn1c(SCC(=O)NCc2ccco2)nnc1-c1ccc(S(=O)(=O)N2CCOCC2)cc1,6.1%,-10.0%,15.9%,1.0%,3.8%&18.2%,-18.2%,6.2%,-4.2%
CCOC(=O)N1CCC(c2cc(=O)n3[nH]c(C)c(-c4ccc(F)cc4)c3n2)CC1,-80.7%,0.0%,·,5.4%,1.8%,7.1%,-4.3%,22.8%
CN(C(=O)CSc1nc2ccccc2o1)C1CCCCC1,·,-10.9%,?,·,-6.5%[46.1 µM],-5.9%,-0.3%,·
CCOc1ccc(/C(O)=C2/C(=O)C(=O)N(c3cc(C)on3)C2c2ccc(C(=O)OC)cc2)cc1 (stereo unspecified),6.3%,-14.4%,2.7%,-6.4%,11.0%[46.1 µM],0.4%,6.0%,?
CCCCn1c(N)c(N(CCC(C)C)C(=O)c2ccccc2-n2cnnn2)c(=O)[nH]c1=O,·,-9.6%,14.2%,·,1.7%,0.9%,2.0%,·
Cc1ccc(C)c(C(=O)CN2Cc3ccccc3C2=O)c1,-1.5%,23.4%,?,·,-9.4%,-1.1%,6.4%,·
CC(=O)Nc1ccc(NC(=O)C2CCN(C(=O)C3CC(=O)N(c4ccc(C)cc4)C3)CC2)cc1 (stereo unspecified),3.8%,7.1%,28.5%[46.1 µM],·,1.6%[46.1 µM],3.0%,1.4%,·
O=C(Nc1cccc(Cl)c1)c1ccc2c(c1)CCN2S(=O)(=O)c1ccccc1,·,-10.8%,?,-1.3%,?,·,·,?
CN(c1ccc(F)cc1)S(=O)(=O)N1CCCC(C(=O)NCc2ccccc2Cl)C1 (stereo unspecified),·,-9.5%,?,-5.1%,·,·,·,-6.5%
COC(=O)C1=CNC=C(C(=O)OC)C1c1ccccc1Cl,-3.5%,-13.8%,-2.5%,-23.4%,-13.2%,12.0%,0.0%,?
CCC1(c2ccccc2)C(=O)NC(=S)NC1=O,·,-14.1%,10.9%,·,19.4%,-2.8%,·,·
CN(CCC#N)CC(=O)Nc1ccc(NC(=O)CN(C)CCC#N)cc1,1.7%,-2.3%,-7.4%,5.8%,17.9%,8.6%,?,11.9%
CCOc1cccc(CNCCc2c(C)[nH]c3ccc(OC(F)(F)F)cc23)c1O,7.7%,14.1µM*,·,·,·,-6.7%,-1.0%,·
CCC(=O)Nc1nnc(Cc2ccccc2)s1,-11.7%,9.8%,-7.6%[14.3 µM],3.8%,-0.5%,-1.5%,5.2%,4.4%
CC1CCC2(CC1)NC(=O)N(CC(=O)N1CCOCC1)C2=O (stereo unspecified),·,22.4%,9.0%[46.1 µM],·,-17.8%[46.1 µM],4.4%,-1.1%,·
O=C(NCCCN1CCOCC1)c1cc(-c2ccc3c(c2)OCO3)nc2ccccc12,-0.1%,-26.9%,·,-1.9%,-6.0%,-18.7%,-4.2%,-17.0%
COc1ccc(OC)c(CCNC(=O)c2cccc(NC(=O)C3=C(C)OCCS3)c2)c1,-19.4%,-2.4%,·,·,·,4.6%,-0.2%,·
CCc1ccc(/C=N/NC(=O)c2ccccn2)cc1,-8.4%,12.6µM*,1.41µM*,·,?,-27.3%,-3.5%,·
COc1ccccc1NS(=O)(=O)c1cc(C(=O)NCc2ccco2)ccc1C,-8.4%,35.7%[activator],-16.9%,-0.1%,1.2%,20.9%,7.6%,6.4%
COc1ccc(Cc2nnc(NC(=O)c3cccs3)s2)cc1OC,·,-5.1%,-23.8%,·,?,-14.8%,4.2%,·
CCOC(=O)C1CCN(C(=O)CN(c2ccc(OC)cc2)S(=O)(=O)c2c(C)nn(C)c2C)CC1,-6.2%,-10.0%,·,1.0%,-1.0%,-6.0%,-0.5%,5.9%
Cc1cccc(NC(=O)C2CCN(c3nc4ccccc4[nH]3)CC2)c1C,·,7.1%,4.6%[46.1 µM],0.4%,·,·,·,2.0%
CCc1ccc(N(C(=O)CNC(=O)c2ccco2)C(C(=O)NC2CCCC2)c2ccncc2)cc1 (stereo unspecified),-10.9%,-0.8%,16.7%,·,-3.3%[46.1 µM],19.6%,-14.5%,·
COc1ccc(/C=C(/NC(=O)c2ccccc2Cl)C(=O)O)cc1,0.4%,-20.6%,·,·,·,12.6%,0.9%,·
Cc1ccc(C)c(CSc2nnc(CCN)o2)c1,-9.4%,-3.6%,-1.2%,-7.7%,1.0%,2.5%,?,-5.9%
Cc1ccc(C(=O)C(C)OC(=O)c2nc(Cl)ccc2Cl)cc1 (stereo unspecified),2.1%,-16.7%,·,·,·,3.0%,1.9%,·
c1ccc(COc2ccc(CN3CCN(c4ccccn4)CC3)cc2)cc1,-86.6%,-15.5%,-21.9%,0.7%,-23.8%,-4.0%,-2.9%,0.4%
O=C(Cn1c(=O)nc(-c2ccccc2F)c2cc(Cl)ccc21)Nc1ccccc1C(F)(F)F,·,30.9%[activator],?,-3.8%,·,·,·,?
CS(=O)(=O)c1[nH]nc(-c2ccccc2)c1C#N,-0.3%,-10.1%,·,·,·,9.5%,1.0%,·
Cc1cccc(CC(=O)NC2CCS(=O)(=O)C2)c1 (stereo unspecified),·,-25.6%,16.9%,·,19.8%,1.8%,0.8%,·
Cc1cccc(CSc2nc(=O)c3c(n2C)NC(=O)CC3c2cccc(O)c2)c1 (stereo unspecified),·,4.9%,-0.1%[46.1 µM],-3.4%,-13.9%[46.1 µM],·,·,-0.4%
COCCNC(=O)Cc1ccc(NC(=O)N2CCCCc3ccccc32)cc1,·,-2.8%,12.9%[46.1 µM],-0.9%,·,·,·,1.8%
CCn1c(C)nnc1SCC(=O)Nc1ccccc1Cl,4.7%,-0.7%,·,·,·,9.0%,-0.8%,·
COc1ccc(CC(=O)OCC(=O)NC(=O)NC(C)C)cc1,-8.7%,-22.1%,19.1%,10.4%,6.5%,-6.9%,5.5%,0.0%
CCn1c(COc2ccccc2C)nnc1SCC(=O)Nc1ccc2c(c1)OCCO2,-7.4%,-20.4%,7.5%,-1.0%,-9.8%&-9.8%,0.3%,-7.9%,-1.4%
Cc1cc2ccccc2nc1SCC(=O)Nc1nc(-c2ccccc2)cs1,10.4%,17.5%,-1.2%,4.4%,-1.4%,-1.3%,6.2%,7.94µM*
O=C(CC(SCCO)c1ccc2c(c1)OCO2)c1ccco1 (stereo unspecified),-8.7%,18.2%,5.9%,3.0%,0.8%,?,-7.4%,-8.8%
O=C(Nc1ccccc1)C1=C[C@@H](c2coc3ccccc3c2=O)C[C@@H](OCCCCO)O1,-5.5%,-16.4%,·,·,·,7.9%,0.5%,·
Cc1ccc(Cl)cc1N1CCN(S(=O)(=O)c2ccc3[nH]c(=O)ccc3c2)CC1,-3.3%,-8.8%,·,·,·,-15.5%,-3.3%,·
CCN(c1ccccc1)S(=O)(=O)c1ccc(OC)c(NC(=O)c2c(C)noc2C)c1,·,6.5%,-11.0%,·,-4.5%,-1.2%,-4.5%,·
CC(C)Oc1ccc(CNC(=O)C2CCN(C(=O)c3sccc3-n3cccc3)CC2)cc1,·,-20.2%,·,-0.4%,13.4%[46.1 µM],·,·,?
CCC1CN(C(=O)N2CCC(C(=O)N3CCN(c4ccc(F)cc4)CC3)CC2)c2ccccc2O1 (stereo unspecified),·,?,3.4%[46.1 µM],-6.5%,·,·,·,?
CC1Cc2ccccc2N1S(=O)(=O)c1cccc(C(=O)NCC(c2ccco2)N2CCCC2)c1 (stereo unspecified),·,-16.4%,0.3%,·,?,?,-2.5%,·
O=S(=O)(c1ccc(N2CCOCC2)nc1)N1CCOCC1,-10.1%,2.2%,19.5%,-2.0%,-6.6%,-5.8%,6.8%,-2.4%
CCc1nn(C(CC)C(=O)NCc2ccc(OC)c(OC)c2)c(=O)c2cc3oc(C)cc3n12 (stereo unspecified),·,-18.2%,-0.1%[46.1 µM],-4.1%,1.4%[46.1 µM],·,·,12.2%
CC1CCCCN1C(=O)c1cc(F)c(F)cc1Cl (stereo unspecified),6.8%,4.0%,16.1%,0.9%,-5.1%,-11.4%,0.3%,0.7%
CC1=C(C(=O)OC(C)(C)C)C(c2cccs2)NC(=O)N1 (stereo unspecified),14.2%,?,-9.5%,2.4%,7.9%,·,2.0%,-8.4%
Cc1ccc(OC(C)C(=O)Nc2ccc(Cl)cn2)c([N+](=O)[O-])n1 (stereo unspecified),·,-0.2%,27.4%,·,-5.3%,-10.1%,-5.8%,·
CNC(=O)c1ccc(-c2nc(CN3CCc4ccccc43)c(C)o2)cc1,·,-22.9%,10.9%[46.1 µM],-4.7%,·,·,·,?
CCCc1cc(=O)[nH]c(SCC(=O)N(C)Cc2ccccc2)n1,0.5%,-1.7%,6.5%,1.0%,4.4%,8.8%,2.3%,0.1%
CN(C)S(=O)(=O)Oc1ccccc1C(=O)Nc1ccc(F)cc1,0.4%,-10.6%,19.3%[46.1 µM],·,1.0%[46.1 µM],-1.6%,-1.4%,·
